# SARS PLP yeast: inhibitors of SARS-CoV papain-like protease in yeast. S. cerevisiae expressing SARS-CoV PLpro, growth rescue; control for the full effect not named in the record. Potency, µM (highest dose often 32.9 µM), for inactives: top-dose activity, positive = growth rescue. 330,000 tested, 0.19% active. AID 485353; active means well fitted rising curve with a large enough effect; inconclusive means small, poorly fitted or top-dose-only effect; inactive means no such curve, though single readings can be large or run the other way; also: 0% is about no effect; nearly all actives have a fitted effect of over 55% in size; growth read by luminescence after 48 h
# Cruzain noTriton: cruzain (T. cruzi) inhibition without detergent | P25779 | purified cruzain, Z-FR-AMC fluorescence, no detergent | Potency, µM, inactives show max response, negative = inhibition, actives largely listed as inhibitors | 200,000 tested, 2.3% active;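 also: plate controls were enzyme without inhibitor for no effect and buffer without enzyme for full effect; nearly all actives have a fitted effect of over 40% in size; top concentration of the series not given in the record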
# Target sequence (P25779 123-467 limits assumed): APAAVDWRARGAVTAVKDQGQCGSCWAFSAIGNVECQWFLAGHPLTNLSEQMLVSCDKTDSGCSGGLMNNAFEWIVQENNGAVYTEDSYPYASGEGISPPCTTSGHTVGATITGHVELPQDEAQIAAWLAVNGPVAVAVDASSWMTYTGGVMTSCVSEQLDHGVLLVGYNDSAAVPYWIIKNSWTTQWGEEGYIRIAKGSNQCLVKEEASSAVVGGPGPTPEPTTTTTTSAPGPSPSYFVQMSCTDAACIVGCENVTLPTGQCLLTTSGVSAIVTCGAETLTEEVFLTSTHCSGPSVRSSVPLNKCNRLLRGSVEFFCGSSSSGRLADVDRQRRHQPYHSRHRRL
#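 Purified cruzain at 1.5 nM, pre-incubated 15 min with compound at room temperature in 100 mM sodium acetate pH 5.5, 5 mM DTT, 0.00005% Triton X-100. Reaction started with 2 uM Z-FR-AMC; AMC fluorescence increase over 60 s gives rate.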
# Cruzain Triton: inhibitors of Trypanosoma cruzi cruzain with detergent. 200,000 tested, 0.43% active. purified cruzain, Z-FR-AMC fluorescence, 0.01% Triton. AID 1478. P25779. Potency, µM, without a hit: max response, negative = inhibition, hits mostly inhibitors;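 also: plate controls were neutral wells for no effect and buffer without enzyme for full effect; nearly all actives have a fitted effect of over 40% in size; top concentration of the series not given in the record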
#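 Cruzain (1.5 nM) preincubated 15 min at RT with compound in 100 mM sodium acetate pH 5.5, 5 mM DTT, 0.01% Triton X-100. Reaction started with 2 uM Z-FR-AMC; AMC fluorescence (ex 360/em 450 nm) change over 60 s gave rate.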
# NS1 inh: inhibitors of influenza NS1 protein function; S. cerevisiae slowed by influenza A NS1, growth recovery by OD600; Potency, µM (doses to about 46.1 µM), inactives show at the top dose activity, positive = more growth; 270,000 tested, 0.4% active; AID 2326; active means well fitted rising curve with a large enough effect; inconclusive means small, poorly fitted or top-dose-only effect; inactive means no such curve, though single readings can be large or run the other way; also: nearly all actives have a fitted effect of over 50% in size
#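 Read-out: OD600 growth recovery of NS1-expressing budding yeast. Cells grown overnight at 30C in -URA glucose medium, washed, resuspended and diluted 1:100 in 2% galactose assay medium, pH 6.0. Same strain lacking NS1 served as positive control.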
# Lassa entry inh: Lassa virus entry inhibition | Lassa virus pseudotype entry inhibition, cell reporter; control for the full effect not named in the record | Potency, µM (titrated, usually from 37.9 µM), for inactives: at the top dose activity change, negative = inhibition, actives largely listed as inhibitors | 300,000 tested, 1.2% active; active means well fitted inhibition curve with a large enough effect; inconclusive means small, poorly fitted or top-dose-only effect, or effect the other way; inactive means flat fitted curve, though single readings scatter; tested in HEK293 cells; also: % is scaled to controls: 0 for no effect and ±100 for the full control effect; nearly all actives have a fitted effect of over 50% in size; luciferase read-out
# StopGo reporter: FMDV 2A StopGo reporter, luciferase signal. human cells with a luciferase reporter of 2A StopGo recoding; control for the full effect not named in the record. 410,000 tested, 1.2% active. Potency, µM (top dose mostly 57.9 µM), for inactives: at the top dose signal change, negative = less light; active = well fitted falling curve with a large enough effect; inconclusive = small, poorly fitted or top-dose-only effect; inactive = no such curve, though single readings can be large or run the other way; tested in HEK293T cells; also: % is scaled to controls: 0 for no effect and ±100 for the full control effect; nearly all actives have a fitted effect of over 45% in size; luciferase light after 4 h
# RE007 growth inh: less growth of the S. pombe RE007 Vpr strain | S. pombe RE007 Vpr strain, BacTiter-Glo ATP luminescence, 24 h; control for the full effect not named in the record | AID 651644 | Potency, µM (series often up to 92.2 µM), without a hit: at the highest dose activity change, negative = less growth | 360,000 tested, 0.21% active; active = well fitted falling curve with a large enough effect; inconclusive = small, poorly fitted or top-dose-only effect; inactive = no such curve, though single readings can be large or run the other way;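 also: % is scaled to controls: 0 for no effect and ±100 for the full control effect; nearly all actives have a fitted effect of over 50% in size; the assay follows cell death caused by Vpr and the record does not say whether a fall means rescue or toxicity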
#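 Fission yeast RE007 carrying one integrated HIV-1 vpr copy, seeded at OD 0.01 in PMG+AL medium with 23 nL pinned compound. Grown 24 h at 30 degrees; viability read by BacTiter-Glo luminescence after 5 min.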
# Marburg entry inh: Marburg virus entry inhibition; Marburg virus pseudotyped entry inhibition, cell reporter; control for the full effect not named in the record; about a third of the inactives were read at about 46 µM; Potency, µM (titrated, usually from 37.8 µM), for inactives: at the top dose activity change, negative = inhibition, hits mostly inhibitors; 300,000 tested, 1.8% active; active = well fitted inhibition curve with a large enough effect; inconclusive = small, poorly fitted or top-dose-only effect, or effect the other way; inactive = flat fitted curve, though single readings scatter; tested in HEK293 cells; about a fifth of its hits are not listed in these tables; also: % is scaled to controls: 0 for no effect and ±100 for the full control effect; luciferase read-out
# Numbers without * were called inactive; u = inconclusive; x = no result given; & = joins results of further samples; [ ] = remark or other dose. Unless noted, calls follow the shape of the dose curve; as a rule, active = well fitted curve in the direction sought with a large enough effect; inconclusive = small, poorly fitted or top-dose-only effect, or another doubt; inactive = no such curve, though single readings can be large; an effect the other way counts as inactive or inconclusive. Potency is read from the fitted curve at half-maximal effect.
# Sample of the layout:
SMILES,SARS PLP yeast,Cruzain noTriton,Cruzain Triton,NS1 inh,Lassa entry inh,StopGo reporter,RE007 growth inh,Marburg entry inh
O=C(NCc1ccco1)c1ccc2nc3sc4c(c3c(=O)n2c1)CCCC4,-4.4%,22.3%,10µM*,-3.4%,x,x,x,-3.4%
COc1ccccc1CNC(=O)c1ccc(CS(=O)(=O)c2ccc(C)cc2)o1,-5.6%,x,x,0.5%,x,-13.1%,0.1%,x
O=C(CSc1ncccn1)NC(=O)Nc1ccc2c(c1)OCCO2,-0.5%,x,x,3.6%,x,77.7%[activator],10.1%,x
O=C(O)CN1CCN(Cc2ccc(F)cc2Cl)C1=O,5.2%,0.7%,-12.6%,u,-2.1%,7.0%,2.3%,7.7%
COc1ccc(OC)c(-c2csc(NC(=O)c3ccccc3F)n2)c1,2.8%,x,x,3.2%,x,-12.0%,2.1%,x

# The listing, from the first entry:
SMILES,SARS PLP yeast,Cruzain noTriton,Cruzain Triton,NS1 inh,Lassa entry inh,StopGo reporter,RE007 growth inh,Marburg entry inh
O=C(NCc1ccco1)c1ccc2nc3sc4c(c3c(=O)n2c1)CCCC4,-4.4%,22.3%,10µM*,-3.4%,x,x,x,-3.4%
COc1ccccc1CNC(=O)c1ccc(CS(=O)(=O)c2ccc(C)cc2)o1,-5.6%,x,x,0.5%,x,-13.1%,0.1%,x
O=C(CSc1ncccn1)NC(=O)Nc1ccc2c(c1)OCCO2,-0.5%,x,x,3.6%,x,77.7%[activator],10.1%,x
O=C(O)CN1CCN(Cc2ccc(F)cc2Cl)C1=O,5.2%,0.7%,-12.6%,u,-2.1%,7.0%,2.3%,7.7%
COc1ccc(OC)c(-c2csc(NC(=O)c3ccccc3F)n2)c1,2.8%,x,x,3.2%,x,-12.0%,2.1%,x
CN1CCN(c2ccc(Cl)cc2NC(=O)/C=C/c2ccc(F)cc2)CC1,0.3%,x,x,-2.5%,u,-27.3%,-9.1%,u
CC(=O)C(Sc1nn(C)c(=S)s1)C(=O)Nc1ccccc1 (stereo unspecified),u,6.1%,-1.9%,-5.5%,12.2%,40.3%[activator],u,u
CC(=O)c1ccc(NC(=O)C(C)OC(=O)COc2ccc(C#N)cc2)cc1 (stereo unspecified),23.1%,-0.5%,-3.1%,-16.4%,16.0%,-21.6%,0.1%,-1.0%
CCOc1ccc(C(=O)Nc2ccc(N3CCN(C(=O)c4ccco4)CC3)cc2)cc1Br,x,x,x,x,u,u,-4.4%,u
CN(C)c1nc(Nc2ccccc2)nc(N(C)C)n1,1.2%,1.7%,-3.0%,-59.7%,22.1%,-1.3%,-27.2%,3.55µM*
COc1ccc(C(=O)Nc2cc(-c3nc4ccccc4s3)ccc2OC)cc1,x,-11.4%,-1.4%,x,u,-4.2%,x,u
OC1CCCN(Cc2nc(Cc3ccccc3Cl)no2)C1 (stereo unspecified),0.1%,x,x,2.5%,x,6.8%,1.7%,x
CC(=O)Nc1coc2ccc(Br)cc12,-15.7%,-15.5%,-0.7%,-78.7%,5.4%,-16.5%,-10.2%,-3.9%[46.1 µM]
COC(=O)c1c(NC(NC(=O)c2ccccc2)(C(F)(F)F)C(F)(F)F)sc2c1CCN(C)C2,-16.1%,-3.9%,-5.7%,-2.3%,-13.0%,-9.1%,-7.9%,12.4%
COc1ccccc1-c1noc(CCC(=O)Nc2cccc(C)c2)n1,8.5%,-1.9%,-4.8%,-52.0%,-2.1%,-23.6%,-0.1%,-1.7%
O=C(CSc1cn(Cc2ccccc2)c2ccccc12)N1CCOCC1,0.7%,u,0.8%,-9.5%,x,52.2%[activator],-6.9%,x
COc1cc(C(=O)NCCc2csc(-c3ccc(Cl)cc3)n2)cc(OC)c1OC,x,u,-6.1%,x,u,u,x,x
O=C(N=C1SC2CS(=O)(=O)CC2N1Cc1ccccc1)C1CCCO1 (stereo unspecified),-0.6%,x,x,-13.4%,x,-24.5%,-8.4%,x
CCc1cccc(CC)c1NC(=S)NCC(c1cccnc1)N1CCOCC1 (stereo unspecified),7.8%,-1.8%,1.6%,-4.2%,23.3%,-11.2%,5.7%,2.7%
COc1cc(-c2nc3cccc(C)n3c2Nc2ccc3c(c2)OCCO3)ccc1O,x,-4.0%,-7.1%,x,22.7%[46.1 µM],-8.8%,x,8.3%[46.1 µM]
O=C(COC(=O)C1CC(=O)N(c2ccc3c(c2)OCCO3)C1)NC1CCCc2ccccc21 (stereo unspecified),-0.5%,7.9%,3.3%,-85.9%,13.4%,0.0%,-14.3%,-1.4%
CCc1ccc(NC(=O)C2CCN(c3c(N4CCCC4)c(=O)c3=O)CC2)cc1,7.6%,x,x,-1.4%,4.4%[46.1 µM],42.5%[activator],-5.3%,4.4%[46.1 µM]
O=C(OCc1nnc(-c2ccccc2)o1)c1ccc([N+](=O)[O-])o1,2.6%,x,x,x,21.7%,-5.7%,u,16.5%[46.1 µM]
O=C(NCc1ccccc1Cl)c1ccccc1Oc1ccccc1,-14.7%,-16.2%,-5.2%,-15.7%,5.8%,8.2%,23.2%,14.3%
Cc1cc(NC(=O)c2ccco2)ncc1NC(=O)CCc1ccccc1,0.4%,-3.0%,-0.4%,0.1%,-2.0%,16.1%,6.0%,-1.0%[46.1 µM]
# Continuation:
SMILES,SARS PLP yeast,Cruzain noTriton,Cruzain Triton,NS1 inh,Lassa entry inh,StopGo reporter,RE007 growth inh,Marburg entry inh
COc1ccccc1S(=O)(=O)Nc1cc(S(=O)(=O)N2CCCCC2)ccc1N1CCOCC1,-0.4%,x,x,x,-11.0%[46.1 µM],32.1%[activator],6.2%,u
Cc1ccc(C(=O)Nc2ccc(N3CCN(S(C)(=O)=O)CC3)cc2)cc1C,0.3%,x,x,2.8%,u,-7.0%,8.1%,-0.7%[46.1 µM]
C#CCOCCOCCOCCNc1nc(N2CCOCC2)nc(N2CCN(C(=O)[C@H](Cc3cc4ccccc4[nH]3)n3cc([C@@H](N)Cc4ccc(O)cc4)nn3)CC2)n1,-1.2%,x,x,-1.8%,x,2.7%,-1.6%,x
COc1ccc(-n2c(Cc3cccn3C)nnc2SCC(=O)Nc2ccccc2F)cc1,-3.9%,4.3%,-3.3%,3.8%,-14.9%,27.2%,-6.9%,-1.6%
CC1CCCC(N2CCN(C(=O)c3ccc([N+](=O)[O-])cc3)CC2)C1 (stereo unspecified),-6.2%,x,x,12.3%,x,-10.4%,2.7%,x
COc1ccc(OCC(=O)NC(=S)Nc2ccc(S(=O)(=O)Nc3cc(OC)nc(OC)n3)cc2)cc1,7.0%,17.4%,-8.5%,20.6%,3.6%,10.4%,0.0%,5.3%
CCOC(=O)C1(Cc2ccc(OC)cc2)CCN(C(=O)CCn2cccn2)CC1,-2.7%,x,x,-3.3%,10.0%,12.2%,-6.3%,5.3%[46.1 µM]
O=C(c1ccccc1)c1ccc(NCCCn2ccnc2)c([N+](=O)[O-])c1,-1.0%,x,x,2.1%,u,9.9%,-11.0%,u
CCc1ccc(CNC(=O)c2cc(-c3ccc(Cl)s3)nc3ccccc23)cc1,x,1.3%,0.2%,x,23.5%[46.1 µM],-24.8%,x,4.6%[46.1 µM]
Cc1cc2c(cc1NS(=O)(=O)c1cccc(C#N)c1)n(C)c(=O)c(=O)n2C,x,2.1%,-4.9%,x,0.8%[46.1 µM],1.6%,x,x
O=C1OC(c2ccccc2)=NC12CC2c1ccc(Cl)cc1 (stereo unspecified),-81.2%,-9.2%,-20.8%,-55.6%,u,28.2µM*,27.2%,u
O=C(Cc1ccc(Cl)cc1)NNC(=O)c1cnccn1,6.5%,1.3%,2.1%,19.2%,u,3.4%,3.7%,6.0%
NC(=O)c1cc(S(=O)(=O)Nc2cccc(F)c2)co1,-3.0%,1.8%,1.2%,u,x,-9.7%,4.2%,x
OC(Cn1cncn1)(c1ccc(F)cc1)c1ccc(Cl)cc1 (stereo unspecified),-4.2%,x,x,-64.8%,x,-7.6%,3.8%,x
COc1cc(NC(=O)Cn2nc(-c3ccc(C)c(C)c3)ccc2=O)cc(OC)c1,x,25.7%,-10.2%,x,15.9%[46.1 µM],-26.9%,x,9.9%[46.1 µM]
CC(C)CCC1(CCc2ccncc2)C(=O)NC(=O)NC1=O,4.1%,5.1%,-1.5%,-17.0%,-4.1%,-6.2%,6.5%,10.7%
CCOC(=O)c1cccc(NC(=O)CN(c2ccc(C)cc2)S(=O)(=O)c2c(C)n[nH]c2C)c1,-0.8%,u,-4.4%,0.2%,u,-23.5%,-5.3%,1.9%&-28.4%
CC(=O)N1C(=O)N(C)C2C1N(C)C(=O)N2C(C)=O (stereo unspecified),5.9%,-5.0%,4.4%,1.6%,x,x,x,0.7%
O=C(NC1CCN(Cc2ccccc2)CC1)C1CCCN(S(=O)(=O)c2cccc3nonc23)C1 (stereo unspecified),8.1%,-7.6%,-2.8%,0.8%,8.9%,-46.2%,-5.6%,-16.7%&-16.7%[46.1 µM]
CC1CCN(C(=O)CC(NC(N)=O)c2ccccc2Cl)CC1 (stereo unspecified),3.5%,x,x,7.6%,-5.1%,-13.0%,-5.5%,1.2%[46.1 µM]
O=C(NC1CN2CCC1CC2)c1cccc(Cl)c1 (stereo unspecified),-4.4%,x,x,0.1%,1.2%,-12.4%,15.9%,14.7%&14.7%
CCc1ccccc1N(CC(=O)NCc1ccccc1)C(=O)CCC(=O)Nc1ccccn1,-0.8%,x,x,6.4%,-4.9%,15.3%,-29.8%,-11.2%
Oc1ccc(C=NN=Cc2ccco2)c(O)c1,x,x,x,x,-17.4%[46.1 µM],-14.9%,0.3%,-2.5%

# Assay outcomes: PubChem BioAssay, National Center for Advancing Translational Sciences (NCATS)

# Outcome played no part in choosing rows (roughly 4.7% active in at least one column).
